# gsp antag: qHTS for Antagonists of gsp, the Etiologic Mutation Responsible for Fibrous Dysplasia/McCune-Albright Syndrome: qHTS. gsp-mutant cells, cAMP HTRF, 30 min; control for the full effect not named in the record. hit rate 0.4% among 340,000. Potency, µM (top dose mostly 76.9 µM), without a hit: at the top dose activity change, negative = inhibition, most hits filed as inhibitors; active = falling curve of any shape with a large fitted effect; inconclusive = falling curve, mostly with a smaller effect; inactive = flat or rising curve; cell line not stated here;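 note: intracellular cAMP measured with PDE inhibitor Ro 20-1724 present during compound exposure; potency is the fitted concentration of half-maximal effect; % is set by controls: 0 for no effect and ±100 for the full control effect; nearly all actives have a fitted effect of over 65% in size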
#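 Measurement of cellular cAMP by homogeneous time-resolved fluorescence following a 30 min compound exposure at 37C. The PDE inhibitor […] was present throughout; the assay buffer was DPBS with 0.05% BSA and 0.005% Tween 20.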
# D2 PAM: Beta-Arrestin HTS for Positive Allosteric Modulators of the Human D2 Dopamine Receptor: Potentiators; hit rate 0.23% among 360,000; DiscoveRx D2 beta-arrestin cells, luminescence, 90 min; 100% = 57 uM dopamine signal; D(2) dopamine receptor (Homo sapiens), P14416; potentiation, % (concentration not given with the values); active = potentiation of 50% or more; inconclusive = 30% to 50%; inactive = 30% or less;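 note: compound concentration not given in the record; tested on top of an EC20 dose of dopamine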
# Target sequence (P14416 whole entry, looked up): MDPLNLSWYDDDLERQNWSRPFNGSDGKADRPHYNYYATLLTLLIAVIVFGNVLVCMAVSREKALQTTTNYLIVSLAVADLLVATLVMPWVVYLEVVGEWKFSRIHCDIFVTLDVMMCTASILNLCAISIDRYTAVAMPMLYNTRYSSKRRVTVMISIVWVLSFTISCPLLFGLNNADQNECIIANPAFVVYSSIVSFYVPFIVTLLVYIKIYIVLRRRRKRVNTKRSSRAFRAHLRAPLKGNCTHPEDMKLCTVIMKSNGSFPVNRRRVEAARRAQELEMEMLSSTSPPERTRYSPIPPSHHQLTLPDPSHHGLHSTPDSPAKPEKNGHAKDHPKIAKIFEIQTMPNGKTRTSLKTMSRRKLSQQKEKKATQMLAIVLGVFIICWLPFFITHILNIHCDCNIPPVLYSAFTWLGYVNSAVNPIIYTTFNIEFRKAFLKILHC
#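 PathHunter beta-arrestin assay in DiscoveRx D2 cells. Compounds were added with an EC20 of dopamine (50 nM final) for 90 min at 37 deg C. Luminescence was read 1 h after detection reagent, with 57 uM dopamine as the EC100 control.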
# gsp ag: qHTS for Agonist of gsp, the Etiologic Mutation Responsible for Fibrous Dysplasia/McCune-Albright Syndrome: qHTS; hit rate 0.13% among 340,000; Potency, µM (titrated, usually from 76.9 µM), for inactives: at the highest dose activation (cAMP increase), actives largely listed as activators; AID 624287, 2012; gsp mutant cells, cAMP HTRF, 30 min; control for the full effect not named in the record; active = well fitted activation curve with a large enough effect; inconclusive = small, poorly fitted or top-dose-only effect, or another doubt; inactive = no such curve, though single readings can be large or run the other way; cell line not stated here;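 note: phosphodiesterase inhibitor Ro 20-1724 added with compounds to block cAMP breakdown; potency is the fitted concentration of half-maximal effect; nearly all actives have a fitted effect of over 60% in size; about a fifth of the inactives were tested at one dose only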
#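 Cells stably selected in G418 were plated at 2000/well, grown 16-24 hr, then given compounds in DMSO with the PDE inhibitor […] (300 uM solution added) for 30 min at 37C; cAMP was read by HTRF.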
# TRPV1 potentiator: HTS Assay for Compounds that Act as Potentiators of the Vanilloid Receptor 1 | Transient receptor potential cation channel subfamily V member 1 (Homo sapiens), Q8NER1 | TRPV1-expressing cells, Fluo-8 calcium influx, capsaicin EC20 potentiation; host cell line not named in the record; control for the full effect not named in the record | potentiation, % at 8.33 µM | hit rate 0.02% among 320,000; active means potentiation above 80%; inconclusive means 30% to 80%; inactive means below 30%; note: 0% is about no effect
#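 Cells expressing TRPV1 were dye-loaded with Fluo-8 and read kinetically: 10 s baseline, 3 min after compound (agonist portion), then 2 min after EC20 capsaicin (allosteric enhancer portion). Calcium-bound dye fluorescence at 480/520 nm.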
# ClpP mod: qHTS Assay for Activators of ClpP; hit rate 1.9% among 340,000; Potency, µM (doses to about 57.5 µM), without a hit: at the top dose activity change, negative = active; purified B. subtilis ClpP, FRET peptide cleavage, 20 min; ATP-dependent Clp protease proteolytic subunit (Bacillus subtilis (strain 168)), P80244; active = well fitted falling curve with a large enough effect; inconclusive = small, poorly fitted or top-dose-only effect; inactive = no such curve, though single readings can be large or run the other way; note: potency is the fitted concentration of half-maximal effect; the source files actives as falling curves though it sought activators and does not explain the sign; nearly all actives have a fitted effect of over 65% in size; many hits overshoot -100%
# Target sequence (P80244 whole entry, looked up): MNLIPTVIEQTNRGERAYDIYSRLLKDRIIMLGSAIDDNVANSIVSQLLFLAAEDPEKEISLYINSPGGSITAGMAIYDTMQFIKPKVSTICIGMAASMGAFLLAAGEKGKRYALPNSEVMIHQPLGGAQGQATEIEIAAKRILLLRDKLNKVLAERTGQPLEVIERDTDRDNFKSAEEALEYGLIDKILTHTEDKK
#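 ClpP 10 microg/mL final, pH 8 Tris/KCl buffer with BSA, glycerol, Tween-20; compound pinned in; FRET-FV substrate; RT 20 min; Ex320/Em430; ΔFRET vs ADEP 5.8 microM, DMSO, no enzyme.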
# Sfp inh: qHTS Assay for Inhibitors of Bacillus subtilis Sfp phosphopantetheinyl transferase (PPTase); Potency, µM, inactives show max response, negative = inhibition, most hits filed as inhibitors; AID 1490, 2009; hit rate 3.5% among 310,000; Biochemical Sfp PPTase activity, qHTS; 4'-phosphopantetheinyl transferase ffp (Bacillus subtilis), Q9F4F7; active = well fitted inhibition curve with a large enough effect; inconclusive = small, poorly fitted or top-dose-only effect, or another doubt; inactive = no such curve, though single readings can be large or run the other way;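 note: the enzyme is Sfp with the accession as filed and its product quenches rhodamine fluorescence; potency is the fitted concentration of half-maximal effect; 0% = enzyme reaction without inhibitor and -100% = no enzyme wells; top concentration of the series not given in the record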
#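 Step 1, compound plus 15 nM Sfp-PPTase, 15 min, room temperature. Step 2, add rhodamine-CoA (5 uM) and BHQ-2-YbbR (12.5 uM). Step 3, read 525/598 nm fluorescence at 0 and 30 min.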
# Menin-MLL FL inh: qHTS Assay for Inhibitors Targeting the Menin-MLL Interaction in MLL Related Leukemias: Competition With Fluorescein Labeled MLL-derived Peptide; Fluorescence polarization, fluorescein-MLL peptide displacement from menin; FP activity change, % at 61.4 µM; 290,000 tested, under 10 active; AID 1766, 2009; inconclusive = falling polarisation curve, or a change in total fluorescence; inactive = total fluorescence flat and polarisation flat or rising; no compound was filed as active; the % refers to the polarisation; negative = inhibition;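 note: % of control where 0% means no effect; inhibitors lower the polarisation; unlabelled MLL peptide was the positive control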
# Active calls of the source: *; ? = inconclusive; . = no result given; [ ] = remark or other dose. This is a random part of the collection, and some 5.1% of all compounds hit somewhere here.
SMILES,gsp antag,D2 PAM,gsp ag,TRPV1 potentiator,ClpP mod,Sfp inh,Menin-MLL FL inh
O=C(CN1C(=O)NC2(CCCC2)C1=O)c1ccc(Cl)s1,1%,-2,-1%[15.4 µM],12,.,.,.
CN1CCN(NC(=O)c2cc(-c3cccc(Cl)c3)nc3ccccc23)CC1,2%,-6,14%[15.4 µM],-6,1.3%,-9%,-2.5
CCCC(=O)c1ccc(-c2ccccc2)cc1,-1%,-30,8%,-3,-1.4%,14%,1.2
Cc1ccc(N(CCC#N)C(=O)CSc2ccc3c(c2)OCCO3)cc1,-13%,5,0%,-5,-1.8%,-1%,4.5
FC(F)(F)c1cccc(N2CCN(CC3CC=CCC3)CC2)c1 (stereo not given),1%,-30,?,-8,-1.3%,-16%,-22
CC(=O)Nc1ccc(CN2CCN(CCC(C)C)C(CCO)C2)cc1 (stereo not given),7%,-4,34%,-1,.,21%,-1.1
O=C(Nc1cccc(-c2csc(Nc3ccc(Cl)cc3)n2)c1)c1ccccc1,-23%,-8,-46%[inhibitor],29,-2.2%,8%,4.1
CCCc1cc(=O)[nH]c(SCc2cc(=O)oc3c(C)c(C)ccc23)n1,4%,2,2%[15.4 µM],-4,-1.2%,8%,-0.2
Cc1ccc2nc(SCC(=O)N3CCN(C(=O)c4ccco4)CC3)[nH]c2c1,5%,-17,-52%[inhibitor],-2,0.5%,7%,4.8
COc1ccc(OCC(=O)Nc2ncc3c(n2)CC(C)(C)CC3=O)cc1,8%,-9,-39%[inhibitor],10,1.4%,16%,0.0
CC(=O)Nc1ccc(S(=O)(=O)NCC(=O)NCCc2ccc(S(N)(=O)=O)cc2)cc1,11%,-7,-24%,5,.,17%,1.1
NC(=NCc1ccco1)NC(=O)c1ccc(Cl)cc1,-1%,-20,-3%,27,.,3%,-0.7
COc1ccccc1CNC(=O)C1CC(c2ccccc2[N+](=O)[O-])=NO1 (stereo not given),-3%,0,.,12,-3.8%,-6%,2.4
O=C(COC(=O)CNS(=O)(=O)c1ccc(F)c(F)c1F)NCCc1ccccc1,-5%,-13,-52%[15.4 µM],13,-2.3%,-5%,.
COC(=O)c1ccc(OC(=O)CCN2c3ccccc3Sc3ccccc32)cc1,-7%,-1,6%[15.4 µM],10,0.6%,8%,6.2
CCCn1c(N)c(C(=O)COC(=O)c2cccc(S(=O)(=O)N3CCOCC3)c2)c(=O)[nH]c1=O,3%,-2,-34%[inhibitor],16,-0.5%,.,.
CN(C)C=NC(=O)/C(C#N)=C/c1ccccc1,4%,0,23%[15.4 µM],7,.,25%,-0.3
CCSc1nnc(NC(=O)COc2cccc3ccccc23)s1,1%,9,7%,-25,-5.2%,11%,-0.9
CCOc1ccc(S(=O)(=O)NN=C2CCN(C(C)=O)CC2)cc1,7%,-6,?,-2,-0.2%,13%,0.5
Cc1cc(C(=O)N2CCCC(C(=O)c3cccc(C(F)(F)F)c3)C2)nc(C)n1 (stereo not given),10%,0,-3%,1,.,2%,2.9
Cc1ccc(NC(=O)CCn2c(=O)oc3ccccc32)cc1,6%,-22,12%,9,-3.3%,1%,-1.9
O=C(c1ccco1)N1CCN(C(=O)c2cnn3cccnc23)CC1,2%,-3,-10%,9,-23%,8%,0.8
Cc1cc(C)c(N)cc1C,10%,-1,.,-6,0.2%,.,.
O=S(=O)(NCc1ccc2c(c1)OCO2)c1cccc2cccnc12,-4%,14,32%,-13,-1.1%,7%,-0.9
CCCCCCCCOc1ccc(C(=O)O)cc1,4%,-8,.,-12,-0.9%,.,.
CC1CCc2nn(CC(=O)NCCC3=CCCCC3)cc2C1 (stereo not given),8%,-1,11%,9,2.1%,19%,5.7
Cc1ccc(N2CC(C(=O)Nc3nnc(SCc4cccnc4)s3)CC2=O)cc1 (stereo not given),1%,-1,-66%[inhibitor],3,-1.8%,-2%,-0.7
CC1CC(C)CN(S(=O)(=O)c2cccc3nonc23)C1 (stereo not given),-20%,-13,-1%,-2,-2.1%,7%,.
CC(NC(=O)Cc1ccc(S(=O)(=O)N2CCOCC2)s1)c1ccc(Cl)cc1Cl (stereo not given),-17%,-20,9%[15.4 µM],.,-1.1%,.,.
COc1ccc2oc(=O)c(C(=O)Nc3cccc(C)c3)cc2c1,4%,-7,1%,-10,.,9%,0.3
Cc1cccc(NC(=S)NCCC(c2ccccc2)c2ccccc2)c1,-28%,-12,0%,-7,0.8%,17%,4.9
COc1ccc(Br)cc1S(=O)(=O)N1CCOCC1,-8%,22,-8%,-6,1.4%,10%,-2.6
c1cn2c(NC3CCCC3)c(-c3ccc(N4CCOCC4)cc3)nc2cn1,-7%,3,?,.,-1.8%,19%,8.3
COc1cc(OC)cc(C(=O)NCC(=O)NCC(c2ccco2)N2CCCCC2)c1 (stereo not given),4%,-21,-1%,2,-3.2%,.,.
O=C(CCSc1ccccc1)NC(=O)COC(=O)c1ccc(OC(F)F)cc1,11%,3,-36%[inhibitor],-8,1.1%,9%,4.7
CCOC(=O)c1c(C)[nH]c(C(=O)CN2C(=O)NC3(CCCC3)C2=O)c1C,7%,8,?,.,0.8%,-3%,-0.6
Cc1c(Cl)c([N+](=O)[O-])nn1Cc1ccc(C(=O)NN)o1,-2%,-16,1%,15,0.9%,-17%,6.5
O=C(Nc1nc(-c2ccco2)c(-c2ccco2)s1)c1ccc(F)cc1F,-13%,1,-40%[inhibitor],-4,?,.,.
COC1=C(C)C(O)=C(C(=O)/C=C/c2ccccc2)C(=O)C1(C)C,-5%,-3,8%,-27,0.3%,2%,-2.8
CC(C)(C)NC(=O)c1cccc(NC(=O)c2ccc3c(c2)C(=O)N(C(C)(C)C)C3=O)c1,?,9,15%,-3,.,0%,-1.1
O=C(/C=C/c1cccc(Cl)c1)NCc1ccccc1,.,-19,6%[15.4 µM],-7,.,0%,1.3
O=C(COC(=O)c1ccc2c(c1)OCO2)NC1CCS(=O)(=O)C1 (stereo not given),10%,-12,-21%,25,-15%,1%,0.0
COC(=O)C[C@@H]1C[C@H]2c3cc(NC(=O)C4CCC4)ccc3O[C@H]2[C@@H](CO)O1,.,2,?,.,-0.2%,.,.
CCN(CC)c1ccc(-n2cc3c(=O)n(C)c(=O)n(C)c3c2)cc1,25%,-19,?,-14,35µM*,-12%,4.5
CC1(C)CC(NC(=O)C2CCCCC2)CC(C)(C)N1,5%,-7,-1%[15.4 µM],-2,-1.8%,14%,0.0
Cc1ccccc1NC(=O)C1Cc2ccccc2C(=O)O1 (stereo not given),0%,7,3%,-9,-0.8%,9%,5.3
Cc1onc(-c2ccccc2)c1C(=O)N1CCC(CO)(Cc2ccccc2)CC1,?,-1,-44%[inhibitor],-12,3.1%,8%,1.5
CC(=O)Nc1ccc(S(=O)(=O)NCCN2CCOCC2)cc1,13%,5,3%,8,-0.3%,13%,-0.9
CN(C)C(CNc1ccc(C(N)=O)cc1[N+](=O)[O-])c1ccccc1 (stereo not given),7%,-4,21%,-24,.,6%,-2.9
CCc1c(C#N)sc(C(N)=O)c1CC,15%,-4,-1%[15.4 µM],-2,.,6%,0.1

# Ordered by formula weight (ascending): some entries from above
SMILES,gsp antag,D2 PAM,gsp ag,TRPV1 potentiator,ClpP mod,Sfp inh,Menin-MLL FL inh
CC1(C)CC(NC(=O)C2CCCCC2)CC(C)(C)N1,5%,-7,-1%[15.4 µM],-2,-1.8%,14%,0.0
Cc1ccccc1NC(=O)C1Cc2ccccc2C(=O)O1 (stereo not given),0%,7,3%,-9,-0.8%,9%,5.3
CN(C)C(CNc1ccc(C(N)=O)cc1[N+](=O)[O-])c1ccccc1 (stereo not given),7%,-4,21%,-24,.,6%,-2.9

# Continued:
SMILES,gsp antag,D2 PAM,gsp ag,TRPV1 potentiator,ClpP mod,Sfp inh,Menin-MLL FL inh
O=C(NCc1ccncc1)C(=O)NCC1OCCCN1S(=O)(=O)c1cc(F)ccc1F (stereo not given),2%,-1,5%,14,-6.7%,17%,.
CN1C(=O)c2ccc(S(=O)(=O)c3ccc(C(=O)O)cc3)cc2C1=O,3%,-10,-14%,-9,-2.1%,16%,-1.0
S=C(NCc1ccccc1)N1CCN(c2ccccc2)CC1,-7%,-5,-6%,-11,.,12%,-0.8
CCN(C(=O)COC(=O)c1ccc(Cl)nc1)C1CCS(=O)(=O)C1 (stereo not given),7%,-3,11%,-2,-3.1%,10%,-3.2
CC(C)CC(NC(=O)c1ccccc1)C(=O)OCC(=O)Nc1ccc(S(N)(=O)=O)cc1 (stereo not given),0%,-5,1%,5,-0.3%,0%,-1.0
C[C@@H]1CCCCO[C@H](CN(C)C(=O)c2ccncc2)[C@H](C)CN([C@@H](C)CO)C(=O)c2cc(NC(=O)c3ccccc3)ccc2O1,.,2,-44%[inhibitor],.,0.9%,.,.
O=C(Nc1ccc(Cl)c(Cl)c1)O/N=C/c1ccncc1,6%,-15,2%[15.4 µM],-3,-2.2%,-22%,2.3
CCc1ccccc1NC(=O)C1C(c2ccccc2)C1(Cl)Cl (stereo not given),-25%,-5,21%,-10,-2.2%,1%,-9.3
CC(C)=CCC/C(C)=C/CC/C(C)=N/O,-3%,-10,4%,-4,0.0%,12%,-2.3
O=C(/C=C/c1ccc(Br)cc1)NC(=S)N1CCOCC1,-19%,-4,-7%,-5,.,-6%,-1.0
Cc1ccc(C(=O)N2CCN(c3ccc(NC(=O)c4cc(C)cc(C)c4)cc3)CC2)cc1,2%,18,?,-15,-6.8%,2%,.
COc1ccc(NC(=O)CCC(=O)OCc2ccc(Br)cc2)cc1,10%,-5,3%,-11,-0.6%,8%,3.2
Cc1nc(SCC(=O)NCCc2ccccc2)n[nH]1,12%,2,13%,-5,-1.2%,6%,1.2
